Source: PubChem
H5N1 CPE – MDCK cell protection from H5N1 avian flu; cytopathic effect, luminescence, 72 h; stronger effect = higher value; no value below 0 was filed and about half of the inactive calls have no number; reference of the scale not given here; inhibition, % at 50 µM; 0.07% of 96,000 active; in the data active means inhibition above about 25%
Starred values were filed as active, the others as inactive; i = inactive. The list is partial. The share of hits here may be higher or lower than overall.

SMILES	H5N1 CPE
Cc1ccc(C)c(SCC(=O)Nc2nnc(-c3ccccc3)o2)c1	0.2
Cn1c(=O)c2cc(S(=O)(=O)NC(C(=O)NCc3ccccn3)c3ccccc3)ccc2n(C)c1=O (stereo unspecified)	i
CN1CCN(C(=O)c2ccc(COc3ccc(Cl)cc3Cl)cc2)CC1	i
CCOC(=O)c1cc2sccc2n1CC(=O)OC	i
COc1ccc(C2C(C(C)=O)=C(C)Nc3ncnn32)cc1OC (stereo unspecified)	1.6
Cn1c(=O)[nH]c(=O)c2c1nc(N1CCN(c3ccccc3)CC1)n2CCSc1ncccn1	1.8
O=C(NNC(=S)Nc1cccc2ccccc12)c1cccc(Br)c1	0.1
CC(=O)Nc1ccc(/C=N/NC(=O)c2cc3cc(C)ccc3nc2C)cc1	1.2
COc1ccccc1OCc1nc2ccccc2[nH]1	0.1
O=C(c1cccs1)N1CCC(N2CCN(c3ccccc3)CC2)CC1	i
COc1ccc(OC)c(C(=O)CSc2nnc(-c3cccs3)o2)c1	0.7
Cc1ccc(S(=O)(=O)N2CCOCC2)cc1C(=O)NCc1ccco1	0.1
CCOC(=O)CC1C(=O)NCCN1Cc1cccc(OC)c1 (stereo unspecified)	i
COc1ccc(NC(C)=O)cc1NC(=O)CN1CCN(C2c3ccccc3-c3ccccc32)CC1	1.4
COc1ccc(C(=O)Nc2cc(C(=O)NCCc3ccccc3)ccc2Cl)cc1	0.5
N#Cc1ccc(CSc2nnc(NC(=O)CN3C(=O)C4CC=CCC4C3=O)s2)cc1 (stereo unspecified)	1.5
CCCSc1oc(-c2ccco2)nc1S(=O)(=O)c1ccccc1	4.4
COc1ccc(-c2cc(OC(=O)c3ccc(F)cc3)c3c(C)oc(C)c3c(=O)c2)cc1	i
CC(=O)c1cnc(Nc2nc(C)c3ccccc3n2)nc1C	0.1
O=C1CN(c2ccccc2Cl)C(=O)CN1c1ccccc1Cl	i
CCc1ccc(N=CC2=C(O)CC(c3ccco3)CC2=O)cc1 (stereo unspecified)	i
O=c1c2ccccc2[nH]c(=S)n1-c1ccc2c(c1)OCO2	i
Cc1cc(NC(CC(C)C)C(=O)O)nc(Cc2ccccc2)n1 (stereo unspecified)	0.5
O=C1c2ccncc2C(=O)N1CO	0.4
O=P1(O)C=C(c2ccccc2)NC(c2ccccc2)=C1	1.4
(listing goes on)
SMILES	H5N1 CPE
O=C(O)CCCC(=O)Nc1cccc(C(F)(F)F)c1	i
CCOC(=O)CSc1nc2ccccc2n1C(=O)OCC	i
Cc1ccc(-c2noc(CNCCCN(C)C)n2)cc1	i
CSc1nc2ccccc2n1CC(=O)Nc1ccccc1	0.5
c1ccc(-c2onc3c2CCCC3)cc1	i
CCC1CCCCN1CCCNC(=O)COc1cc(=O)n(C)c2ccccc12 (stereo unspecified)	1.9
CC1(C)SC2c3ccccc3C(=O)N2[C@@H]1C(=O)NCc1ccco1 (stereo partly specified)	i
COC(=O)c1ccccc1NC(=O)C1CCCCC1C(=O)O (stereo unspecified)	0.1
N#CC(C(=O)NCc1ccco1)c1nc2ccccc2nc1N1CCOCC1 (stereo unspecified)	3.1
CCC(=O)OCCn1c(=O)c2cc3c(=O)n(CCOC(=O)CC)c(=O)c3cc2c1=O	i
CN1CCN(c2ccccc2NC(=O)c2cc(Br)ccc2Cl)CC1	i
CCCCC(CC)C1OCC(CN2CCCC2)O1 (stereo unspecified)	i
CC(C)c1ccc(Nc2ncccc2C#N)cc1	i
Cn1c(=O)c2c(nc(CN3CCC(C(N)=O)CC3)n2CCc2ccccc2)n(C)c1=O	1.1
CCCOc1cc(C)c(S(=O)(=O)n2nnc3ccccc32)cc1C	i
COc1cc(NC(=O)c2ccccc2)c(OC)cc1NC(=O)CN1CCOCC1	i
COCCCn1c(SCC(=O)N2CC(=O)Nc3ccccc32)nnc1-c1ccoc1C	0.1
O=C(COc1ccc(S(=O)(=O)N2CCCC2)cc1Cl)NC1CC1	0.3
O=c1c2c3c(sc2nc2n1CCCC2)CCCCC3	i
Cc1cc(=O)n2nc(N3CCC(C(=O)NC4CCCc5ccccc54)CC3)sc2n1 (stereo unspecified)	i
Cc1cc2cc3c(cc2nc1SCC(=O)Nc1c(C)cccc1C)CCC3	i
CCc1ccc(-n2c(O)cnc2Nc2nc(C)cc(C)n2)cc1	0.0
COc1cc(CNCCc2ccc(S(N)(=O)=O)cc2)ccc1OCC(=O)NC1CCCCC1	1.2
CCOC(=O)N1CCN(C(=O)Cc2ccsc2)CC1	0.2
CS(=O)(=O)N(CC(=O)Nc1ccccc1)Cc1ccc(Cl)cc1	i
Further compounds follow:
SMILES	H5N1 CPE
COc1cccc(C(=O)/C=C/c2ccc(SC)cc2)c1	i
Cc1ccc(-n2nc(C(=O)O)c3ccccc3c2=O)cc1C	1.7
CCC(C)NC(=O)C1CC(c2ccc(OC)cc2)=NO1 (stereo unspecified)	i
CCOc1ccc(C(C)C)cc1S(=O)(=O)n1nc(C)cc1C	0.8
CCn1nc(C(=O)Nc2ccc(C)c(C)c2)c(Cl)c1Cl	0.3
CCN(CC)C(=O)C1CCCN(c2ccc([N+](=O)[O-])cc2/C=N/NC(=O)c2cccc([N+](=O)[O-])c2)C1 (stereo unspecified)	i
CCCCN(C(=O)NC(=O)Nc1nc2ccc(OC)cc2s1)S(C)(=O)=O	1.1
O=C1CC(Nc2ccccc2)C(=O)N1c1ccc(N2CCOCC2)cc1 (stereo unspecified)	0.1
COc1ccc(-c2nnc(-c3cccnc3)o2)cc1	i
Cc1[nH]c(=O)[nH]c(=O)c1S(=O)(=O)N1CCCC1	0.6
CS(=O)c1nc(-c2ccc(Br)cc2)cc(-c2ccccc2)c1C#N (stereo unspecified)	i
COc1ccc(-c2nc3c(n2O)CCCC3=O)cc1OC	i
CCOC(=O)c1c(C)n(C)c2ccc(OC)c(NC(=O)CCN3CCSCC3)c12	1.1
CCc1c(C)nc(SCC(=O)c2ccc(C)c(C)c2)[nH]c1=O	i
CC(C)CN(CC(C)C)C(=O)Cc1coc2ccc3ccccc3c12	10.3
Nc1nc2nc(SCC(=O)N3CCCc4ccccc43)[nH]c2c(=O)[nH]1	i
Brc1ccc(Oc2ncc(CN3CCOCC3)s2)cc1	0.3
CN(CCc1ccccn1)S(=O)(=O)c1ccc(F)cc1	i
COC(=O)C1C2C=CC3(CN(Cc4cccs4)C(=O)C13)O2 (stereo unspecified)	i
CN1C(=O)CSc2ccc(NC(=O)Nc3ccccn3)cc21	2.3
O=C(Nc1ccc(Cl)c([N+](=O)[O-])c1)c1ccc(NCCCN2CCOCC2)c([N+](=O)[O-])c1	i
CCOc1ccc(Nc2oc(-c3cccc(Cl)c3)nc2C#N)cc1	0.5
NC(=O)CSc1nnc(-c2ccc(S(=O)(=O)N3CCCC3)cc2)n1CC1CCCO1 (stereo unspecified)	0.1
COc1ccc(S(=O)(=O)NCc2ccccn2)cc1	1.3
CCN(CC)C(=O)Cn1nc(-c2ccccc2O)nc1SCC(=O)Nc1ccc(OC)cc1	0.2
(cont.)
SMILES	H5N1 CPE
Nc1ccc(Sc2cnn(-c3ccccc3)c(=O)c2Cl)cc1	i
O=C(CCn1cccc1)Nc1nccs1	1.6
COCC(=O)Nc1ccc(S(=O)(=O)NCCc2ccccc2)cc1	0.2
CNC(=O)c1c[nH]n2c(=O)c(Cc3ccccc3F)c(C)nc12	0.7
O=C(CN1CCN(S(=O)(=O)c2ccc(F)cc2)CC1)Nc1ccc(Cl)c(C(F)(F)F)c1	4.0
Cn1c(=O)c2c(nc(SCC(=O)NCc3ccc4c(c3)OCO4)n2Cc2ccccc2)n(C)c1=O	0.5
COc1ccc(C(=O)CSc2nnc(C3CCCCC3)n2N)c(OC)c1	1.8
CCN(CC)C(=O)COc1cc(C)cc2oc(=O)cc(-c3ccccc3)c12	0.4
O=C(NCCc1ccccc1)NC1CCCCC1	1.8
Cc1ccc(-n2c(SCC(=O)NCC3CCCO3)nnc2-c2ccoc2C)cc1 (stereo unspecified)	0.7
O=C(c1ccccc1Cl)N1CCNCC1	i
COc1ccc(-n2cnnc2SCCC#N)cc1	i
Cc1cc2cc(CN(Cc3ccco3)C(=O)C3CCCCC3)c(=O)[nH]c2cc1C	1.0
Cc1ccccc1NC(=O)Cc1c(O)c2ccccc2[nH]c1=O	i
CCOc1ccc(S(=O)(=O)Nc2ccc(S(=O)(=O)N3CCCCC3)cc2)cc1	1.1
CCc1ccc(N(C(=O)Cc2cccs2)C(C(=O)NC2CCCCC2)c2cn(C)nc2C)cc1 (stereo unspecified)	i
COC(=O)[C@H](CCSC)NC(=O)N1CCN(Cc2ccccc2)CC1	i
Fc1ccc2c(c1)C(c1ccncc1)=NNC(c1cccnc1)=N2	1.8
CCC(C)NS(=O)(=O)c1ccc(OCC(=O)NCc2ccco2)cc1 (stereo unspecified)	i
Cc1ccc(NCc2ccccc2OCc2ccccc2F)cc1	i
COC(=O)CC1Oc2ccccc2N(Cc2ccc(C)cc2)C1=O (stereo unspecified)	0.4
CCc1ccc(C(C)NC(=O)/C(C#N)=C\c2cn[nH]c2-c2ccccc2)cc1 (stereo unspecified)	0.6
COCCOC(=O)c1c(C)n(C)c2ccc(OC(=O)c3ccco3)cc12	0.8
CCOC(=O)c1sc2cc([N+](=O)[O-])cc(SCC(=O)OC)c2c1N	0.2
Cc1nn(Cc2ccccc2Cl)c(Cl)c1C(=O)OCC(=O)NCc1ccco1	i
More records:
SMILES	H5N1 CPE
CCSc1nnc(NC(=O)c2cc3c(s2)CCCC3)s1	0.0
O=C(Nc1cc(Oc2ccccc2)cc([N+](=O)[O-])c1)C12CC3CC(C1)CC(n1cnc(Cl)n1)(C3)C2	i
Cc1c(C(=O)NC2CCCc3ccccc32)oc2ccc(S(=O)(=O)N3CCOCC3)cc12 (stereo unspecified)	1.6
COC(=O)[C@H](Cc1ccccc1)NC(=O)NCc1ccccc1OC	i
Fc1ccc(COc2ccc(Cl)cc2/C=N/Nc2nc(N3CCCC3)nc(N3CCCC3)n2)cc1	i
O=C(Cn1nc(Cc2cccnc2)c2ccccc2c1=O)NCC1COc2ccccc2O1 (stereo unspecified)	i
Cc1ccc(C(C(=O)NC2CCCCC2)N(Cc2ccco2)C(=O)C2COc3ccccc3O2)o1 (stereo unspecified)	0.2
COc1ccccc1N1CCN(C(CNS(=O)(=O)c2ccccc2)c2cccnc2)CC1 (stereo unspecified)	1.2
O=C(CCCCCN1C(=O)c2ccccc2C1=O)Nc1nccs1	i
CC1(C)CC(=NOC(=O)c2ccccc2)CC(C)(C)N1	0.0
COC(=O)CN1C(=O)C(O)(CC(=O)c2ccc(C)cc2)c2ccccc21 (stereo unspecified)	i
Cc1nn(Cc2ccccc2Cl)c2sc(C(=O)OC3CCCC3=O)cc12 (stereo unspecified)	i
CCOc1ccc(-n2c(N)c(C(=O)NCc3ccco3)c3nc4ccccc4nc32)cc1	5.7
CCOC(=O)C1CCc2sc(N)c(C#N)c21 (stereo unspecified)	0.8
CN(C)CC(=O)Nc1nc(-c2ccccc2)cs1	i
CSCCC(NC(=O)C1CC1)c1nc2ccccc2[nH]1 (stereo unspecified)	i
CC(=O)CC1(C)OC(N)=C(C#N)C1(C#N)C#N (stereo unspecified)	i
COC(=O)CSc1nnc(-c2cccc(NC(=O)c3ccc(C)cc3)c2)n1C	0.3
CN1CC=C2C(C#N)=C(N)C(C#N)(C#N)C(c3ccncc3)C2C1 (stereo unspecified)	0.5
CCN1CC(C)C(O)(c2ccccc2)CC1C (stereo unspecified)	0.5
C=CCOc1cccc(C2C(C(=O)c3ccc(C)o3)=C(O)C(=O)N2Cc2ccncc2)c1 (stereo unspecified)	1.0
Cc1cccc(C)c1OCc1nnc(SCC(=O)Nc2nccs2)o1	i
CCn1c(SCC(=O)Nc2ccc(N(C)C)cc2)nnc1-c1cccc(C)c1	i
CNC(=S)NNC(=O)c1sccc1OCc1cccc(C(F)(F)F)c1	i
COc1ccccc1C1CC(c2ccccc2)Nc2ncnn21 (stereo unspecified)	i
(listing goes on)
SMILES	H5N1 CPE
COc1ccc(C(C)=O)cc1CSc1nnc(-c2ccccc2O)n1-c1ccccc1	0.1
O=C(NCc1ccco1)C1CCCN1C(=O)NCc1ccccc1 (stereo unspecified)	i
CCN(CCCNC(=O)CCCN1C(=O)COc2ccc(C)cc21)c1cccc(C)c1	i
CC(C)(C)OC(=O)NCCc1nnc(SCC(=O)Nc2cccc(Cl)c2)o1	i
CCOC(=O)/C(=C/Nc1ccccc1)[N+](=O)[O-]	0.5
CC1(O)c2ccccc2C(=O)N1CCc1ccccc1F (stereo unspecified)	0.8
N#Cc1cc2c(nc1SCC(N)=O)CCCCC2	i

Of the compounds above, these contain a thiophene ring, fused or not.
SMILES	H5N1 CPE
CCOC(=O)c1cc2sccc2n1CC(=O)OC	i
O=C(c1cccs1)N1CCC(N2CCN(c3ccccc3)CC2)CC1	i
COc1ccc(OC)c(C(=O)CSc2nnc(-c3cccs3)o2)c1	0.7
O=c1c2c3c(sc2nc2n1CCCC2)CCCCC3	i
CCOC(=O)N1CCN(C(=O)Cc2ccsc2)CC1	0.2
COC(=O)C1C2C=CC3(CN(Cc4cccs4)C(=O)C13)O2 (stereo unspecified)	i
CCc1ccc(N(C(=O)Cc2cccs2)C(C(=O)NC2CCCCC2)c2cn(C)nc2C)cc1 (stereo unspecified)	i
CCOC(=O)c1sc2cc([N+](=O)[O-])cc(SCC(=O)OC)c2c1N	0.2
CCSc1nnc(NC(=O)c2cc3c(s2)CCCC3)s1	0.0
Cc1nn(Cc2ccccc2Cl)c2sc(C(=O)OC3CCCC3=O)cc12 (stereo unspecified)	i
CCOC(=O)C1CCc2sc(N)c(C#N)c21 (stereo unspecified)	0.8
CNC(=S)NNC(=O)c1sccc1OCc1cccc(C(F)(F)F)c1	i
